Assay outcomes from PubChem.
Beta2AR agonist: human beta-2 adrenergic receptor agonism by FAP; hit rate 0.43% among 340,000; response, % (no concentration beside the values); Am2.2-beta2AR cells, FAP receptor internalization, flow cytometry; reference of the scale not given here; P07550;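 active = response above a set limit, near 3 SD of response in nonfluorescent compounds, cut at about 42% in these data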;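 note: stock transfer was 100 nL into about 11 µL; a reference agonist was the positive control; negative values mostly stem from fluorescent compounds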
Target sequence (P07550 whole entry, looked up): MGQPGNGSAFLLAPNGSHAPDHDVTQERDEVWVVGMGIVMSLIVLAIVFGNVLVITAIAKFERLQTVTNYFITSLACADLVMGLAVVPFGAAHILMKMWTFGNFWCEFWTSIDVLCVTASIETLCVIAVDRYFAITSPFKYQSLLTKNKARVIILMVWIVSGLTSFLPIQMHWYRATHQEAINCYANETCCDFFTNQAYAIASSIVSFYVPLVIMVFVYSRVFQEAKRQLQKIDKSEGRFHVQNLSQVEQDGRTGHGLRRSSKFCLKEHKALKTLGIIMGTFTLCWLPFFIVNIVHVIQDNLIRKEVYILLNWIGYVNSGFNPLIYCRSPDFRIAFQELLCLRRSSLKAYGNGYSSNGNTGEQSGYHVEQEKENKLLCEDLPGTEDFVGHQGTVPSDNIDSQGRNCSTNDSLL
Calb FLC: affects C. albicans growth with fluconazole | C. albicans CaCi-2 (fluconazole-resistant clinical isolate) + fluconazole, Alamar Blue growth, 48 h | growth inhibition, % (no concentration beside the values) | hit rate 0.57% among 300,000;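 active = most replicates above 75%; inconclusive = exactly half above 75%; inactive = most below 75%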;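 note: all wells also contain fluconazole at 8 µg/ml as a sub-toxic cotreatment; 0% = median of DMSO wells and 100% = median of geldanamycin control wells; wells of about 8 µL received 7.5 nL stock; the first replicate is given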
RanGTP-Impb inh: inhibitors of RanGTP-importin-beta interaction, primary screen, biochemical, FRET, CFP-Ran, YFP-importin-beta, homogeneous | cell-free CFP-Ran/YFP-importin-beta FRET ratio | inhibition, % (concentration not given with the values) | hit rate 1.1% among 300,000;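 active = most replicates above 15%; inconclusive = exactly half above 15%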;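 note: 0% = DMSO wells and 100% = Ran loaded with GDP instead of GTP; wells of about 40 µL received 100 nL stock; the first replicate is given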
UCH37 DUB inh: inhibitors of human deubiquitinating enzyme UCH37; Q9Y5K5; purified proteasome/UCH37, Ub-AMC cleavage fluorescence; inhibition, % (no concentration beside the values); hit rate 0.33% among 330,000;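 active = mean of two replicates above 20%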;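 note: 0% = compound-free wells with enzyme and 100% = wells lacking proteasome; stock transfer was 100 nL into about 20 µL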
Target sequence (Q9Y5K5 whole entry, looked up): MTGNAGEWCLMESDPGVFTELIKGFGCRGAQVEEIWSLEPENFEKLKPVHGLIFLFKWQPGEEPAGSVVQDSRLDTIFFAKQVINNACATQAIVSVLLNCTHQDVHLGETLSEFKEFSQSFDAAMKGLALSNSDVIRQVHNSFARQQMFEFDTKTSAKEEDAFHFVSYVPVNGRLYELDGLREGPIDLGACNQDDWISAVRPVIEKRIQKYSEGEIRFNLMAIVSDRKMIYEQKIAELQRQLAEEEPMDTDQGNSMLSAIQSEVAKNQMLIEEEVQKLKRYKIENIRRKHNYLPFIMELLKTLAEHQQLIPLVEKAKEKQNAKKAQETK
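Material: Human UCH37 enzyme supplied as purified proteasome complex | Schedule: 30 min compound-proteasome preincubation then 25 min substrate reaction, room temperature | Detection: AMC fluorescence from Ub-AMC cleavage, excitation 355 nm, emission 460 nm | Benchmarks: Wells without proteasome as full block, compound-free enzyme plus substrate as uninhibited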
T cruzi inh: blocks replication of Trypanosoma cruzi; hit rate 1.4% among 300,000; T. cruzi beta-gal in NIH3T3, luminescence, 90 h; inhibition, % (concentration not given with the values);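 active = mean inhibition across valid replicates above about 55%, limit read from the data; inconclusive = mean below that limit but half or more replicates reach it; inactive = mean below it, under half of replicates reach it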;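 note: signal also drops with host cell toxicity which is not excluded here; 0% = plate median of DMSO wells and 100% = zero luminescence signal; higher percent means less beta-gal luminescence so fewer parasites; stock transfer was 50 nL into about 50 µL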
A1 inh: inhibitors of the anti-apoptotic protein A1, read as caspase activation. MEF A1-2A-BIM cells, Caspase-Glo 3/7 luminescence, 3 h; percent of clofoctol response, vehicle zero. caspase activation, % (no concentration beside the values). hit rate 0.066% among 330,000;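 active = over half of replicate activation scores above 10%, or exactly half above 10 with the replicate mean above 10; inconclusive = replicate mean below 10 yet half the replicates above 10; inactive = over half of replicates below 10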;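 note: wells of about 30 µL received 50 nL stock; many hits fall short of the cut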
Beta apoptosis: blocks beta cell apoptosis. INS-1E cytokine-induced death, ATP luminescence, 48 h; percent of positive-control rescue, neutral wells zero. protection from apoptosis, % (concentration not given with the values). hit rate 0.8% among 300,000. AID 435005;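 active = all replicates at 75% or more, or half of them and the mean; inconclusive = half reach 75% but not the mean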;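 note: 0% = cytokine-treated negative control wells and 100% = positive control rescue; higher means more ATP so stronger rescue from cytokine killing; wells of about 40 µL received 100 nL stock; the first replicate is given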
LANA-H2A inh: blocks KSHV LANA binding to histone H2A/H2B; Q9QR71; cell-free LANA-H2A/H2B peptide, fluorescence polarization; inhibition, % (test concentration not listed); hit rate 0.6% among 320,000; AID 2629; in the data active = inhibition mostly above about 10%, no sharp cut-off; inactive = mostly below about 6.7%;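 note: stock transfer was 7.5 nL into about 10 µL; 0% = median of vehicle wells and 100% = median of positive control wells; one replicate is shown; the record names a cut of 25% in any replicate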
The depositor's hits bear a star; ? = inconclusive; · = no result given. Compounds were not picked by outcome (roughly 4.3% active in at least one column).

no. | Structure | Beta2AR agonist | Calb FLC | RanGTP-Impb inh | UCH37 DUB inh | T cruzi inh | A1 inh | Beta apoptosis | LANA-H2A inh
1 | O=C(CCC(=O)N1CCSc2ccccc21)NCCc1ccccc1 | -8.0 | -0.7 | 2.8 | 1.3 | -13.0 | -0.5 | -0.5 | -1.5
2 | CCN(c1ccccc1)S(=O)(=O)c1ccc(C(=O)N(CCN(C)C)c2nc3c(F)cc(F)cc3s2)cc1 | · | -1.5 | 1.6 | · | 34.4 | -1.2 | 0.2 | -4.9
3 | O=C(NC1CCCCCC1)c1ccc(CS(=O)Cc2ccccc2Cl)o1 (configuration not stated) | -19.5 | -3.2 | -5.1 | 4.5 | 18.3 | 0.5 | 1.0 | -2.4
4 | COCC(=O)N1CCC(n2nnc3cc(C(F)(F)F)ccc32)CC1 | -5.8 | -2.9 | -3.6 | 6.6 | -9.9 | 0.5 | 0.3 | -4.2
5 | O=C(O)c1cc2c(N3CCC(Cc4ccccc4)CC3)ncnc2s1 | -1.4 | ? | -1.5 | 3.6 | -5.0 | 0.9 | -5.7 | -36.8
6 | CCN(CC(=O)Nc1ccc(S(=O)(=O)N2CCCC2)cc1)CC(=O)Nc1cccc(OC)c1 | -6.0 | -3.5 | 4.4 | 5.2 | 3.0 | 0.2 | -1.6 | 1.8
7 | S=C1NCN(Cc2cccnc2)CN1 | 0.5 | 3.8 | -1.0 | 4.0 | 2.3 | 0.7 | -14.9 | 7.1
8 | CCCCN(Cc1ccccc1)C(=O)c1cnc2n(c1=O)CCS2 | -3.5 | -12.6 | 0.0 | -1.2 | -1.4 | 0.7 | -2.7 | 3.1
9 | CCOC(=O)CNC(=O)c1c2c(nc3ccccc13)CCCC2 | 2.6 | -2.8 | 5.1 | -0.3 | -14.4 | 0.0 | -1.8 | -4.3
10 | CCOC(=O)c1cc(-c2ccc(C)cc2)n(CCC(=O)N2CCN(c3ccccn3)CC2)c1C | -8.5 | -4.8 | -3.6 | 3.4 | 21.5 | 1.0 | 1.3 | 0.2
11 | O=C(O)c1coc2ccccc12 | · | -0.4 | -1.3 | 2.2 | -16.2 | 0.5 | -8.4 | -2.1
12 | C=C(C)C(=O)OCC(O)COc1ccc(C(C)(C)c2ccc(OCC(O)COC(=O)C(=C)C)cc2)cc1 (configuration not stated) | 4.2 | · | 2.6 | 0.1 | -17.3 | -0.4 | 104.4* | -6.7
13 | O=C(N/N=C/c1ccnc2ccccc12)c1ccccc1O | 6.0 | 3.5 | 7.4 | · | -9.7 | -0.9 | -0.8 | 0.9
14 | Cc1ccc(C(=O)Nc2ccc(C(=O)O)cc2)cc1S(=O)(=O)NCc1ccccc1 | -1.2 | -25.4 | 1.9 | 6.4 | -3.6 | -0.4 | -6.8 | -3.3
15 | COc1cccc(NC(=O)[C@@H]2CCC(=O)N2C2OC(=O)c3ccccc32)c1 (some centres not stated) | 4.2 | -3.1 | -5.4 | -2.4 | 3.4 | 2.3 | -5.0 | 6.2
16 | CNC(=S)Nc1ccc([N+](=O)[O-])cc1C | 3.4 | -11.4 | -5.6 | 1.7 | -0.1 | -0.3 | -8.8 | 1.5
17 | COc1ccc(CNC(=O)CN(C)S(=O)(=O)c2ccccc2)cc1 | -3.0 | 17.0 | · | 2.8 | -13.2 | 0.3 | -3.4 | 0.0
18 | CCOC(=O)C1=C(c2ccccc2)NC(SCC(=O)NC2CCCCC2)=C(C#N)C1c1ccco1 (configuration not stated) | 1.5 | -7.6 | -3.3 | 1.8 | 22.2 | 0.0 | 7.3 | -7.4
19 | CN1CCN(NC(=O)COc2cccc(C(F)(F)F)c2)CC1 | -4.1 | 15.7 | 1.7 | 4.3 | -2.4 | 0.1 | -3.8 | 2.6
20 | O=C(O)COc1cccc(NC(=O)C2CCCO2)c1 (configuration not stated) | -3.5 | 18.9 | 1.6 | -0.2 | -1.0 | 0.1 | -4.6 | -1.1

Down the list, as entered above.
Beta apoptosis, nos. 3 to 13 → 1.0, 0.3, -5.7, -1.6, -14.9, -2.7, -1.8, 1.3, -8.4, 104.4*, -0.8
Beta2AR agonist, nos. 3 to 13 → -19.5, -5.8, -1.4, -6.0, 0.5, -3.5, 2.6, -8.5, ·, 4.2, 6.0
T cruzi inh, nos. 3 to 13 → 18.3, -9.9, -5.0, 3.0, 2.3, -1.4, -14.4, 21.5, -16.2, -17.3, -9.7

The list continues:
no. | Structure | Beta2AR agonist | Calb FLC | RanGTP-Impb inh | UCH37 DUB inh | T cruzi inh | A1 inh | Beta apoptosis | LANA-H2A inh
21 | CNC(=O)c1c(C)[nH]c(=S)c(C#N)c1-c1ccco1 | -3.3 | 6.6 | 31.0* | 8.1 | -10.5 | -0.1 | -1.1 | -1.8
22 | Cc1ccccc1C(=O)N1CCC(C(=O)NC2CCCC2)CC1 | 2.3 | 6.2 | -0.5 | 4.7 | -3.7 | 0.5 | -4.7 | 2.7
23 | O=C(c1ccccc1)c1c[nH]c(C(=O)NCc2cccnc2)c1 | 4.1 | -0.4 | -4.9 | 2.6 | -5.8 | -0.6 | · | -1.0
24 | COc1ccc(C)cc1S(=O)(=O)N1CCN(c2cccc(C(F)(F)F)c2)CC1 | -6.1 | · | -0.6 | -0.1 | 52.8 | -0.4 | -14.3 | 3.2
25 | CC(C)CCn1c(N)c(S(=O)(=O)c2cccs2)c2nc3ccccc3nc21 | 11.7 | 17.9 | -2.6 | -151.4 | 44.9 | 0.0 | 17.7 | 0.1
26 | CCCN(CC(=O)Nc1ccccc1C)C(=O)c1ccc(N2CCCCC2)c([N+](=O)[O-])c1 | 1.2 | 0.7 | -0.2 | 4.4 | 3.1 | 0.1 | · | 2.7
27 | CS(=O)(=O)NCCSc1nnnn1-c1ccccc1 | -2.5 | 14.3 | 2.2 | · | -10.3 | -1.5 | -8.7 | 2.2
28 | N/C(Cc1ccc([N+](=O)[O-])cc1)=N\OC(=O)Cc1ccc(Cl)cc1 | 7.5 | 10.6 | 1.0 | · | -10.1 | -0.5 | -0.6 | 1.9

Among those listed so far, these have nitrogen in an aromatic ring:
no. | Structure | Beta2AR agonist | Calb FLC | RanGTP-Impb inh | UCH37 DUB inh | T cruzi inh | A1 inh | Beta apoptosis | LANA-H2A inh
2 | CCN(c1ccccc1)S(=O)(=O)c1ccc(C(=O)N(CCN(C)C)c2nc3c(F)cc(F)cc3s2)cc1 | · | -1.5 | 1.6 | · | 34.4 | -1.2 | 0.2 | -4.9
4 | COCC(=O)N1CCC(n2nnc3cc(C(F)(F)F)ccc32)CC1 | -5.8 | -2.9 | -3.6 | 6.6 | -9.9 | 0.5 | 0.3 | -4.2
5 | O=C(O)c1cc2c(N3CCC(Cc4ccccc4)CC3)ncnc2s1 | -1.4 | ? | -1.5 | 3.6 | -5.0 | 0.9 | -5.7 | -36.8
7 | S=C1NCN(Cc2cccnc2)CN1 | 0.5 | 3.8 | -1.0 | 4.0 | 2.3 | 0.7 | -14.9 | 7.1
8 | CCCCN(Cc1ccccc1)C(=O)c1cnc2n(c1=O)CCS2 | -3.5 | -12.6 | 0.0 | -1.2 | -1.4 | 0.7 | -2.7 | 3.1
9 | CCOC(=O)CNC(=O)c1c2c(nc3ccccc13)CCCC2 | 2.6 | -2.8 | 5.1 | -0.3 | -14.4 | 0.0 | -1.8 | -4.3
10 | CCOC(=O)c1cc(-c2ccc(C)cc2)n(CCC(=O)N2CCN(c3ccccn3)CC2)c1C | -8.5 | -4.8 | -3.6 | 3.4 | 21.5 | 1.0 | 1.3 | 0.2
13 | O=C(N/N=C/c1ccnc2ccccc12)c1ccccc1O | 6.0 | 3.5 | 7.4 | · | -9.7 | -0.9 | -0.8 | 0.9
21 | CNC(=O)c1c(C)[nH]c(=S)c(C#N)c1-c1ccco1 | -3.3 | 6.6 | 31.0* | 8.1 | -10.5 | -0.1 | -1.1 | -1.8
23 | O=C(c1ccccc1)c1c[nH]c(C(=O)NCc2cccnc2)c1 | 4.1 | -0.4 | -4.9 | 2.6 | -5.8 | -0.6 | · | -1.0
25 | CC(C)CCn1c(N)c(S(=O)(=O)c2cccs2)c2nc3ccccc3nc21 | 11.7 | 17.9 | -2.6 | -151.4 | 44.9 | 0.0 | 17.7 | 0.1
27 | CS(=O)(=O)NCCSc1nnnn1-c1ccccc1 | -2.5 | 14.3 | 2.2 | · | -10.3 | -1.5 | -8.7 | 2.2
